Bioassay records deposited in PubChem by several laboratories.
GALR2 ag: GALR2 (human) receptor agonism | O43603 | actives 0.48% (n = 140,000) | AID 803 | activation, %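 (tested at 5 µM)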 | GALR2-expressing cells, agonist activation read-out;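 active means above mean plus 3 SD of all compounds, about 5% in these data, not always enough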;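 further: 0% = vehicle buffer wells and 100% = reference agonist at full effect; tested in CHO reporter cells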
Insulin prom inh: TRM-6 insulin promoter activity inhibition. TRM-6 cells (human fetal islet line), insulin promoter-eGFP reporter, imaging; reporter expression induced with tamoxifen. AID 1273. actives 0.9% (n = 130,000). inhibition, % at 2 µM;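 active means inhibition above the mean plus 3 SD, with well images judged a real hit on visual review, cut at about 60% in these data, passing the limit was not always enough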
PKD1 inh: inhibitors of human PKD1 kinase | PKD1 kinase fluorescence polarization assay | AID 797 | Q15139 | inhibition, %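 (about 10 µM by stock and volumes)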 | actives 0.056% (n = 200,000);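 active means inhibition of 50% or more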;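 further: controls were vehicle for no effect and a reference inhibitor for full effect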
Target sequence (Q15139 whole entry, looked up): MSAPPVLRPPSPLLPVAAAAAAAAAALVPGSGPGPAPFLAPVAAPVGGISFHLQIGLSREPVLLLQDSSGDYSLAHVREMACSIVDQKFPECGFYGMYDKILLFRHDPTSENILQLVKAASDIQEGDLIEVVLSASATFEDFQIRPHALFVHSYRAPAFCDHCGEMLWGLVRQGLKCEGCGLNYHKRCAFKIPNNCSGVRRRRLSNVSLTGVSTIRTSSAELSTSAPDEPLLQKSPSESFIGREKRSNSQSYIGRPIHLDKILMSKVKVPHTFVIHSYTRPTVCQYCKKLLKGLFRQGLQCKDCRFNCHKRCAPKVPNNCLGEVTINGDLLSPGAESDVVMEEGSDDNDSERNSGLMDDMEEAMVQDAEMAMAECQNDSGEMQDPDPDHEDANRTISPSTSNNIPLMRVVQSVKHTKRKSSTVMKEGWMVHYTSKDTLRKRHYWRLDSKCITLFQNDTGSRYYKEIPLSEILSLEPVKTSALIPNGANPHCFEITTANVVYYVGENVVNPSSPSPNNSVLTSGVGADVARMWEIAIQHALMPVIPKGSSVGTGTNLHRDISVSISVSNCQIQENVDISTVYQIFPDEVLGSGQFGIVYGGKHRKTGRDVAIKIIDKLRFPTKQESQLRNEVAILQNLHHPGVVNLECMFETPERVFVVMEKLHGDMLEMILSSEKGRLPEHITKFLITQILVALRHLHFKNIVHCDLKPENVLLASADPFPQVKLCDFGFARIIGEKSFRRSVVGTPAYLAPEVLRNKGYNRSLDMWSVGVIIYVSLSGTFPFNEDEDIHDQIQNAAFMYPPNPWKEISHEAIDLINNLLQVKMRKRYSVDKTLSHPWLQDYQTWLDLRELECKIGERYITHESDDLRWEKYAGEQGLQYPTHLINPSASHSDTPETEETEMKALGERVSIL
HSV augment: HSV replication enhancement. actives 0.005% (n = 220,000). HSV replication augmentation in cells, fold increase. maximum fold increase;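 active means peak rise of 1.5-fold or more in the series; tested in PC3 cells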;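 further: first round at 10 µM; read as green reporter fluorescence; hits show the peak of a series up to 25 µM; 1 = signal of infected wells without compound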
RGS16-Gao HTS: regulators of human RGS16-Galphao interaction | binding response (% of control), % at 10 µM | actives 0.38% (n = 220,000) | AID 1441 | O15492+P09471 | bead-based flow cytometry RGS16-Galphao binding, fluorescence; actives lie on both sides;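 active means below 25% or above 175%, edge rows of some plates excepted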;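 further: Galphao activated by GDP with aluminum fluoride before binding; 100% = wells without compound and 0% = beads without RGS; some results beyond the cut were filed as inactive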
Insulin prom inh cell count: second read-out of Insulin prom inh, no call of its own (marks repeat the call); normalized cell count, %; measured here: cell count, toxicity; reference of the scale not given here;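 cells exposed to compound for 48 h; stained nuclei by imaging scaled within each plate; lower means fewer cells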
HSV augment primary fold: also measured in HSV augment; calls as there; fold increase; compound at 10 µM; measured here: primary screen fold increase 10 uM; tested in PC3 cells;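 GFP signal in the first replicate; 1 = infected wells without compound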
Active calls of the source: *; i = inactive; x = not tested or not shown.

SMILES	GALR2 ag	Insulin prom inh	Insulin prom inh cell count	PKD1 inh	HSV augment	HSV augment primary fold	RGS16-Gao HTS
CCCN(CCC)C(=O)CP(=O)(c1ccccc1)c1ccccc1	-3.9	x	x	-1	i	1	97
CCOc1ccc(CN(C(=O)c2cc3ccccc3oc2=O)C2CCS(=O)(=O)C2)cc1 (stereo not drawn)	x	x	x	x	i	1.1	98
CC(C)(C)c1cc(NC(=O)c2ccc(OC3CCCC3)cc2)no1	-0.1	34	113	-11	i	0.77	92
CCOC(=O)C(Sc1ncn[nH]1)c1ccccc1 (stereo not drawn)	-3.6	-196	105	-5	i	0.91	105
CCC(C)/C(C)=N/NC(=O)CSc1nc2ccccc2[nH]1 (stereo not drawn)	x	x	x	1	i	0.94	96
Cc1cc([N+](=O)[O-])nn1Cn1nc([N+](=O)[O-])cc1C	x	x	x	-1	i	0.98	102
CCc1c(C(=O)NCCc2ccc(OC)c(OC)c2)[nH]c(C)c1C(C)=O	-0.8	-17	83	-12	i	0.64	104
CCN1C(=O)CC(N2CCN(c3ccc(C(=O)c4ccccc4)cc3)CC2)C1=O (stereo not drawn)	-0.6	36	29	7	i	0.88	100
COc1ccc(S(=O)(=O)N2CCCC2)cc1C(C)C	x	x	x	-2	i	1.1	88
FC(F)Oc1ccc(NC(=S)NCc2ccccc2)cc1Cl	-2.4	11	137	9	i	1.1	104
O=C(Oc1ccc2c3c(c(=O)oc2c1)CCCC3)c1ccco1	2.3	9	89	18	i	0.94	90
Cc1ccccc1NC(=O)CSc1nc(N)c2c3c(sc2n1)CSC(C)(C)C3	0.0	x	x	-1	i	1.3	104
O=C(CSc1cccc2cccnc12)OCC(=O)c1ccccc1	-1.5	29	120	3	i	0.93	103
Cc1ccccc1Cc1c(C)nc2ncnn2c1C	0.3	x	x	8	i	1.1	102
CN(Cc1ccccc1)c1ccc([N+](=O)[O-])cc1C(=O)O	x	x	x	4	i	1.1	104
Cc1cc(C)nc(N2CCCC(CCC(=O)NCc3ccc(F)c(F)c3)C2)n1 (stereo not drawn)	x	x	x	-8	i	0.98	101
Cc1ccc(-n2c(C)nn(CC#N)c2=O)cc1	x	x	x	-13	i	0.91	107
CN(CCO)CCC(=O)NC1(C)CS(=O)(=O)CC1S(=O)(=O)O (stereo not drawn)	x	x	x	x	i	1	104
Cc1cc(NC(=O)CSc2nc3c(cc2C#N)CCCCC3)no1	x	20	86	0	i	0.84	101
CCCC1C(C(=O)OCC)=C(C)NC(C)=C1C(=O)OCC	-1.7	-22	151	-8	i	0.92	108

Exported as comma-separated lines: entries from further up.
Molecule,GALR2 ag,Insulin prom inh,Insulin prom inh cell count,PKD1 inh,HSV augment,HSV augment primary fold,RGS16-Gao HTS
CCN1C(=O)CC(N2CCN(c3ccc(C(=O)c4ccccc4)cc3)CC2)C1=O (stereo not drawn),-0.6,36,29,7,i,0.88,100
COc1ccc(S(=O)(=O)N2CCCC2)cc1C(C)C,x,x,x,-2,i,1.1,88
FC(F)Oc1ccc(NC(=S)NCc2ccccc2)cc1Cl,-2.4,11,137,9,i,1.1,104

Next part
SMILES	GALR2 ag	Insulin prom inh	Insulin prom inh cell count	PKD1 inh	HSV augment	HSV augment primary fold	RGS16-Gao HTS
CCC/C(O)=C1\C(=O)CCCC1=NCCCCCC(=O)O	-2.9	16	119	-7	i	0.94	104
O=C(NCC1CCCO1)C(=Cc1cccc([N+](=O)[O-])c1)C(=O)NCC1CCCO1 (stereo not drawn)	-1.5	x	x	-5	i	0.56	72
Nc1cccc2nsnc12	x	x	x	x	i	1.1	97
CCOCCCNC(=O)C(c1ccc(Cl)cc1)N1CCC2(CC1)OCCO2 (stereo not drawn)	-2.2	-86	173	8	i	1	102
C=CCNC(=O)CN1CCC(n2c(C)nc3cc(C(F)(F)F)ccc32)CC1	-1.7	18	72	-3	i	0.93	102
CCC(CC)NC(=O)c1cc(OC)c(OC)cc1[N+](=O)[O-]	0.1	-21	55	-6	i	1	101
O=C(O)CCCNC(=O)CCCn1nnc2ccccc2c1=O	x	x	x	x	i	1.2	99
COc1cccc(C2NC(=O)NC(C)=C2C(=O)Nc2ccc(C)cc2)c1 (stereo not drawn)	-2.0	x	x	-11	i	1	104
CCN(Cc1ccccc1)S(=O)(=O)c1cc(C(=O)O)ccc1OC	x	36	149	-4	i	1	108
CN(C)CCCNc1ncc(C(F)(F)F)cc1Cl	x	x	x	-7	i	0.88	101
Cc1[nH]c(=O)c(C#N)c(C)c1Cl	x	x	x	x	i	0.99	99
CC1CCN(CC(O)COc2cccc(F)c2)CC1 (stereo not drawn)	-1.4	x	x	-4	i	0.8	103
COc1ccc(NC(=O)C2CCCN2C(=O)OCc2ccccc2)c(OC)c1 (stereo not drawn)	-0.8	x	x	-6	i	0.99	119
Cc1cc(=O)oc2cc(OCc3ccc(C(=O)N4CCN(c5ccc([N+](=O)[O-])cc5)CC4)cc3)ccc12	0.2	-13	59	-14	i	0.96	96
O=C(Cc1ccccc1)NNc1c2ccccc2nc2ccccc12	x	x	x	-2	i	0.84	94
O=C(Nc1ccc2c(c1)C(=O)NC2=O)c1ccc2ncsc2c1	x	32	98	-7	i	1	107
Cc1cc(N)n(Cc2ccc(Cl)cc2)n1	x	0	89	-3	i	1	106
COCC(C)NC(=O)C(C)Oc1ccccc1 (stereo not drawn)	-0.4	42	122	7	i	0.89	106
O=C(NCc1ccco1)NC12CC3CC(CC(C3)C1)C2	0.1	-14	110	-6	i	0.81	101
Cc1ccc(NC(=O)c2ccc(S(=O)(=O)N3CCOCC3)cc2)nc1	-1.2	-21	117	-6	i	0.93	99
CCN(CCn1cccn1)C(=O)CC1C(=O)NCCN1Cc1ccc(F)c(F)c1 (stereo not drawn)	x	x	x	-2	i	1.1	99
CCNc1cc(N2CCN(S(=O)(=O)c3ccc4c(c3)CCCC4)CC2)ccc1[N+](=O)[O-]	-0.1	64	85	3	i	0.95	100
CCOc1cccc(=O)c2c(C)n(C)c(C)c12	-1.9	x	x	-1	i	1.1	101
CCCn1c(=O)c2ccccc2n2c(SCC(=O)c3ccc(CC)cc3)nnc12	-2.6	3	125	-3	i	0.92	106
CCOc1cc(/C=N/OC(C)=O)ccc1OCc1ccccc1	x	-41	69	1	i	0.93	105
Cc1ccc(-n2c(-c3ccccc3)n[nH]c2=S)cc1	-2.7	68	116	-6	i	0.99	104
CC(NC(=O)CSc1nnc(CC(=O)Nc2ccc(Cl)c(Cl)c2)n1C)c1ccccc1 (stereo not drawn)	-0.9	-57	145	11	i	0.83	104
CCC(=O)Nc1ccc2nc(C)n(Cc3ccccc3Cl)c(=O)c2c1	-3.0	44	126	-3	i	0.94	100
C=CCNC(=O)/C(=C\C=C\c1ccccc1)NC(=O)c1ccc(OCCCC)cc1	1.4	7	102	4	i	0.96	1.7*
Cc1ccc(S(=O)(=O)N(C)c2ccccc2)cc1	-2.7	-6	80	-4	i	0.87	98
Clc1ccc(CSc2nnc(-c3ccccn3)n2Cc2ccco2)c(Cl)c1	-0.4	61	107	6	i	1.1	101
CC(C)CNC(=O)CC(c1ccccc1)c1c(O)ccc2ccccc12 (stereo not drawn)	0.2	-51	95	-11	i	1.1	97
Cc1cccc(C(=O)N2CCN(c3ccc([N+](=O)[O-])c(N4CCOCC4)c3)CC2)c1	-0.2	19	107	5	i	1.1	99
COc1ccc(NC(=O)Nc2cc(C)ccc2OC)cc1	-2.9	21	156	-6	i	1	92
O=C(COC(=O)c1cc[n+]([O-])cc1)Nc1ccccc1Cl	x	x	x	0	i	1	115
CC(=O)c1cccc(Nc2cc(C)nc3ccccc23)c1	x	x	x	x	i	1.3	105
CN1C(=O)/C(=C\c2ccncc2)SC1=Nc1ccccc1	0.6	-17	55	0	i	0.79	102
Cn1c(=O)cc(OCC(=O)N2CCN(c3ccccc3F)CC2)c2ccccc21	x	35	110	-1	i	1.1	110
Cc1ccc(C(=O)NC(=S)Nc2ccc(NC(=O)c3cccs3)cc2)cc1[N+](=O)[O-]	0.7	x	x	-8	i	0.87	177
Cc1ccc(NC(=O)CSCCc2ccccn2)nc1	-0.8	x	x	0	i	1.4	101

Part of the list above, with two lines to a compound:
The line under a structure holds: GALR2 ag	Insulin prom inh	Insulin prom inh cell count	PKD1 inh	HSV augment	HSV augment primary fold	RGS16-Gao HTS
- Cc1ccc(NC(=O)c2ccc(S(=O)(=O)N3CCOCC3)cc2)nc1
→ -1.2	-21	117	-6	i	0.93	99
- O=C(Nc1ccc2c(c1)C(=O)NC2=O)c1ccc2ncsc2c1
→ x	32	98	-7	i	1	107
- COc1ccc(NC(=O)C2CCCN2C(=O)OCc2ccccc2)c(OC)c1 (stereo not drawn)
→ -0.8	x	x	-6	i	0.99	119
- FC(F)Oc1ccc(NC(=S)NCc2ccccc2)cc1Cl
→ -2.4	11	137	9	i	1.1	104
- Cc1ccccc1NC(=O)CSc1nc(N)c2c3c(sc2n1)CSC(C)(C)C3
→ 0.0	x	x	-1	i	1.3	104

(list continues)
SMILES	GALR2 ag	Insulin prom inh	Insulin prom inh cell count	PKD1 inh	HSV augment	HSV augment primary fold	RGS16-Gao HTS
N#CC1=C2SCN(c3ccccc3)CN2C(=O)CC1c1ccccc1Cl (stereo not drawn)	-0.6	x	x	2	i	0.93	86
COc1ccc(Cl)cc1NC(=O)CNCC(c1ccccc1)N(C)C (stereo not drawn)	x	x	x	-4	i	0.91	98
CC(C)OC(=O)c1cc2ccccc2[nH]1	-1.8	-348	41	0	i	0.84	87
COC(=O)c1ccc(NC(=O)CCc2c(C)nc3ncnn3c2C)cc1	-0.7	x	x	-7	i	0.88	101
Cc1nnc(NC(=O)CSc2nnc(Cc3cccn3C)n2-c2cccc(C(F)(F)F)c2)s1	-1.1	x	x	-1	i	1.1	102
Cc1cnn(CCC(=O)NNC(=S)Nc2cccc(Cl)c2)c1	-3.6	x	x	-8	i	0.76	101
CCc1cc(C(c2cccc(OC)c2)N2CCOCC2)c(NC(=O)c2ccccc2)s1 (stereo not drawn)	-1.0	x	x	9	i	0.92	100
N#CCCN1CCn2c1nc1ccccc12	-2.4	-7	161	4	i	0.72	107
COc1cc(NS(=O)(=O)c2ccc(NC(C)=O)cc2)nc(OC)n1	-0.5	-25	126	3	i	0.91	100
C=C(C)CC1Nc2ccccc2NC1CC(=C)C (stereo not drawn)	-4.7	8	95	2	i	0.87	91
Cc1cccc(Nc2ccc(C(=O)N3CCOCC3)cn2)c1	x	x	x	5	i	0.95	106
O=C(CSc1ccc2nnc(-c3cccnc3)n2n1)NCc1ccc2c(c1)OCO2	-1.1	x	x	-9	i	1	88
CCCNC(=O)c1ccc2c(=O)c(O)c(-c3ccsc3)[nH]c2c1	x	x	x	x	i	0.98	75
O=[N+]([O-])c1cc(S(=O)(=O)C(F)(F)F)ccc1Sc1nc2ccccc2s1	-4.0	-3	95	-12	i	0.5	97
CS(=O)(=O)c1nc(-c2ccco2)cc(C(F)(F)F)n1	2.9	-3	88	-3	i	0.66	106
C=CCn1c(CCC(O)COCCC)n[nH]c1=S (stereo not drawn)	x	x	x	-4	i	1	68
O=C(N/N=C/C=C/c1ccco1)C(O)c1ccccc1 (stereo not drawn)	-2.4	-30	92	2	i	1.2	x
Cc1noc(/C=C/N(C)C)c1S(=O)(=O)N1CCC(C(=O)O)CC1	-0.9	-10	71	8	i	1	103
CCC(C)NC(=O)CSc1nc2c(sc3ccccc32)c(=O)n1CCCN1CCOCC1 (stereo not drawn)	0.4	15	88	-14	i	0.88	187
CC(=O)N(/N=C/c1cccc(C)c1)c1nc(-c2ccc(Br)cc2)cs1	-1.6	26	132	-8	i	0.97	100
COc1ccc2c(C(=O)CN3CCN(c4ccccc4)CC3)c[nH]c2c1	-3.4	-94	97	-3	i	0.81	102
S=c1[nH]nc(C2CCCCC2)n1/N=C/c1ccncc1	x	53	88	-5	i	0.99	99
O=C(NNC(=S)NC(=O)c1ccccc1[N+](=O)[O-])c1ccccc1Cl	-0.5	31	102	-8	i	0.84	105
Cc1ccc(SC(C)C(=O)Nc2ccncc2)cc1 (stereo not drawn)	-2.9	-55	130	5	i	0.92	98
COc1cccc(OCC(=O)NNC(=O)c2ccc(-c3ccccc3)cc2)c1	1.2	-30	69	-5	i	0.97	98
Cn1c(=O)oc2cc(S(=O)(=O)N3CCCC(C(=O)Nc4ccc5c(c4)OCCO5)C3)ccc21 (stereo not drawn)	-1.2	x	x	-16	i	0.97	102
CC(C)(C)NC(=O)COC(=O)/C=C/c1ccccc1[N+](=O)[O-]	-1.4	14	109	-2	i	1	97
COc1ccc(-c2nc3ccccc3[nH]2)cc1	-4.3	94*	139*	-6	i	0.79	150
CCN(CC(=O)Nc1ccc2c(c1)OCCO2)S(=O)(=O)c1cccs1	-0.2	-3	116	0	i	0.61	99
